Source: PubChem
KCNQ2 pot: potentiators of rat KCNQ2 potassium channel. AID 2239. 310,000 compounds, 0.54% hits. CHO-K1 KCNQ2, FluxOR thallium flux fluorescence; active compounds read high. B-score at 10 µM;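 active means fluorescence ratio B-score at least 3 SD of library B-scores, with initial fluorescence B-score within 3 SD, cut at about 5.3 in these data; same plate scores as AID 2156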;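 further: B-score of peak minus minimum over baseline fluorescence ratio after K+ and Tl+ stimulus; positive B-score means potentiation of KCNQ2 with more thallium influx and brighter signal; only the inactives scoring about 0 or higher are listed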
Target sequence (O88943 whole entry, looked up): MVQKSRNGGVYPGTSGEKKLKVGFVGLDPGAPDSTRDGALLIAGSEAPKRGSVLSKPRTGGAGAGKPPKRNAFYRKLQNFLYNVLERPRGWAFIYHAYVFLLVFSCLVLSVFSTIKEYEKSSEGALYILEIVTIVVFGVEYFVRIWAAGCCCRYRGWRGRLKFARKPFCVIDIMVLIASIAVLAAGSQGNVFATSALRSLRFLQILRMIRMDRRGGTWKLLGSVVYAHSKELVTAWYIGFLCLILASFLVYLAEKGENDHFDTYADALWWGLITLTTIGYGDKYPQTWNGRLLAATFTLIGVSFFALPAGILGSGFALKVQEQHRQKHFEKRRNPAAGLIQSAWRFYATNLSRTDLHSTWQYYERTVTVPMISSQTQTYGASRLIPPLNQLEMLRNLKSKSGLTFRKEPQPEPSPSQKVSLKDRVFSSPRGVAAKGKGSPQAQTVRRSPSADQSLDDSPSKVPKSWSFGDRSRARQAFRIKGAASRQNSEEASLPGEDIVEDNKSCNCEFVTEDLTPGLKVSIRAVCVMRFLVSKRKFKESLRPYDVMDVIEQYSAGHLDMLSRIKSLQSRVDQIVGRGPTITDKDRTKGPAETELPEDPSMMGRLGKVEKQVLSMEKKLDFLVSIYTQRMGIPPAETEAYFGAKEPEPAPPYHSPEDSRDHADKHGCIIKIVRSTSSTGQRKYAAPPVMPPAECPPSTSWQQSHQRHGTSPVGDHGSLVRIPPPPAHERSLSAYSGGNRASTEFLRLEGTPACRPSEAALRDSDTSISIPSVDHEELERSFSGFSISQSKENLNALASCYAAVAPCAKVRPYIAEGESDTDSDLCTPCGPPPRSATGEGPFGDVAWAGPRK
KCNQ2 pot baseline: also measured in KCNQ2 pot; calls as there; B-score; compound at 10 µM; measured here: initial fluorescence intensity artifact check;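 brightness before thallium and not channel activity; 0 = typical well and far values either way flag optical interference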
* marks the source's active call; other numbers are inactive results. Not all compounds are listed; rates above refer to the full screens.

SMILES	KCNQ2 pot	KCNQ2 pot baseline
O=C(O)c1ccc(N/N=C/c2ccc(-c3cccc(Cl)c3)o2)cc1	3.21	0.43
Cc1noc(C)c1/C=N/Nc1ccccn1	0.02	-0.69
CC(=O)NCC(=O)OCC(=O)c1ccc(C)cc1	0.73	1.04
Cc1ccnc(NC(=O)c2cc3c(=O)oc4ccc(C)cc4c3s2)c1	0.77	-3.23
COCCCNC(=O)c1cc2c(-c3cccc(OC)c3)nn(C)c2s1	0.07	-2.92
CCOc1ccccc1CN1CCN(CCCn2cccn2)CC1CCO (stereo not given)	0.3	-0.87
Cc1cc(NC(=O)C(C)C)ncc1NC(=O)c1cccc(F)c1	1.07	-0.1
CCOc1ccccc1N1CCN(C(=O)CNC(=O)c2ccc(OC)c(OC)c2)CC1	0.78	-1.19
N#CC1(C#N)C(C(N)=O)C1c1ccccc1 (stereo not given)	1.95	1.86
O=C(NN1CCOCC1)c1cc(-c2ccc(Br)s2)nc2ccccc12	0.05	1.9
CCCn1nnnc1NCc1cccc(Cl)c1	1.27	0.35
COC(=O)N/N=C\C=C\c1ccc2c(c1)OCO2	0.57	-0.69
Cc1ccc(C)c2[nH]c(=O)c(CCNC(=O)c3ccc(Br)o3)cc12	1.01	0.67
Cc1cc(C)n(C(=O)c2c([N+](=O)[O-])c(C)nn2C)n1	0.67	-1.35
O=C(COc1ccc(Br)cc1)Nc1ccc(CN2CCOCC2)cc1	1.04	0.1
Cc1ccc(C)c(NC(=O)c2ccc3ccccc3n2)c1	0.39	0.03
COc1ccc(OC)c(C2N(c3cc(C)on3)C(=O)C3CCCN32)c1 (stereo not given)	0.75	-0.24
O=C1c2cccc([N+](=O)[O-])c2C(=O)N1c1c[nH]c(=O)[nH]c1=O	1.15	0.59
COCCCNc1nc(N)c([N+](=O)[O-])c(Nc2cc(OC)ccc2OC)n1	2.63	-1.76
COc1ccc(Cl)cc1NC(=O)CSc1nc(=O)n(CCN(C)C)c2c1CCCC2	2.79	0.94
O=C(Nc1ccc(Br)cc1)c1cccnc1N1CCOCC1	0.07	1.53
Cc1ccc(-c2ccc(=O)n(CCC(=O)N3CCN(c4ccccc4)CC3)n2)cc1	1.55	-2.98
O=C(O)c1cccc(CN2C(=O)SC(Nc3cccc4ccccc34)C2=O)c1 (stereo not given)	0.53	-1.45
COc1ccc(OC)c(/C=N/NC(=O)CCc2n[nH]c(=O)[nH]c2=O)c1	1	1.26
Cc1nc2ccccc2n1CC(=O)NCCN1CCCC1	0.32	1.62
Cc1ccc(-c2csc3nnc(SCC(=O)NCc4ccco4)n23)cc1	0.06	-0.35
COC(=O)c1sccc1-n1cccc1C(=O)NCc1ccccc1	0.04	1.54
CCc1ccc(Cn2nnc(C(=O)Nc3cccc(C)c3)c2N)cc1	0.85	0.34
O=c1c2c3c(sc2nc2sc(CN4CCOCC4)cn12)CCCC3	0.88	-0.46
COc1ccc(/C=C2/C(=O)N(c3ccccc3)N=C2C)cc1	0.27	-1.89
CCOC(=O)NC(c1ccccc1)C1CCCCC1=O (stereo not given)	0.54	-0.16
Cc1cc(C(=O)Nn2cnc3ccccc3c2=O)ccc1[N+](=O)[O-]	1.11	-0.55
Brc1cnc2nc[nH]c2c1	0.45	0.64
Nc1cccc(C2=Nc3cccc4cccc(c34)N2)c1	1.06	0.56
CCN(CC)c1nc(C)nc2c1cnn2CCc1ccccc1	0.06	-0.07
NC(=O)NC(=O)COC(=O)c1ccc(OC(F)F)cc1	1.45	0.07

In a second layout: 3 of the compounds above
Every second line gives: KCNQ2 pot	KCNQ2 pot baseline
COC(=O)N/N=C\C=C\c1ccc2c(c1)OCO2
    0.57	-0.69
Cc1ccc(C)c2[nH]c(=O)c(CCNC(=O)c3ccc(Br)o3)cc12
    1.01	0.67
Cc1cc(C)n(C(=O)c2c([N+](=O)[O-])c(C)nn2C)n1
    0.67	-1.35

Some values from the results shown.
Cc1ccc(-c2csc3nnc(SCC(=O)NCc4ccco4)n23)cc1 @ KCNQ2 pot baseline = -0.35
Nc1cccc(C2=Nc3cccc4cccc(c34)N2)c1 @ KCNQ2 pot = 1.06
O=c1c2c3c(sc2nc2sc(CN4CCOCC4)cn12)CCCC3 @ KCNQ2 pot baseline = -0.46

Other structures follow.
SMILES	KCNQ2 pot	KCNQ2 pot baseline
CCOC(=O)c1oc2c(CN3CCN(C)CC3)c(O)ccc2c(=O)c1-c1ccccc1OC	0.06	-1.16
C/C(=N\NC(=O)c1cccc(Cl)c1)c1cccc(NC(=O)c2ccco2)c1	1.06	-0.26
NC(=O)COc1ccc(-c2noc(COc3ccccc3[N+](=O)[O-])n2)cc1	3.03	-2.6
Cc1ccc(NC(=O)[C@@H](NC(=O)c2cccc(S(=O)(=O)N3CCOCC3)c2)C(C)C)cc1C	0.15	-3.27
COc1ccc2[nH]c(=O)c(-c3noc(-c4ccc(F)cc4)n3)cc2c1	0.76	0.43
CC(C)c1nnc(NC(=O)c2nc(S(=O)(=O)Cc3ccc(F)cc3)ncc2Cl)s1	11.3*	-0.59*
COC(CNC(=O)c1ccc(CS(=O)(=O)c2ccc(C)cc2)o1)OC	0.04	-1.31
COC(=O)CC1=NN(c2nc3ccccc3s2)C(=O)/C1=C/N(C)C	3.09	-1.06
Cn1nc2c3ccccc3n(Cc3ccc(F)cc3)c2nc1=S	0.73	0.72
COc1ccc(C(C)=O)cc1CN1C(=O)NC2(CCCCCCC2)C1=O	0.34	0.74
CCc1nnc(NC(=O)CSc2ccc(-c3nc4ccc(C)cc4[nH]3)cn2)s1	0.95	0.97
CN(C)/C=C/C(=O)c1ccc(Oc2ncccn2)cc1	1.2	-0.06
CCN(CC)CCOC(=O)C12CC3CC(CC(C3)C1)C2	1.14	-0.74
O=C(COC(=O)C1CCN(S(=O)(=O)c2ccccc2)CC1)NC(=O)c1ccc(OC(F)F)cc1	0.43	-1.62
COc1cccc(NC(=O)CNC(=O)c2ccc(C)o2)c1	0.19	0.82
O=C(O)COc1ccc(/C=C2/SC(=S)N(Cc3ccccc3)C2=O)cc1	1.54	-1.51
O=C(O)Cc1ccc(-n2cccc2)cc1	0.6	0.63
O=C(O)c1cccc(NC(=S)NC(=O)C(c2ccccc2)c2ccccc2)c1	0.29	-0.29
O=C(c1c[nH]c2ccccc12)C(Cl)c1ccccc1 (stereo not given)	0.37	0.21
Cn1c(=O)c2c(SCC(=O)N3CCCC3)nc(-c3ccccc3)nc2n(C)c1=O	2.43	-1.7
COc1ccc(-c2nnc(SCc3ccc(C(=O)O)cc3)n2C)cc1OC	0.06	0.78
COc1cc(NC(=O)COC(=O)CCc2cc(OC)c(OC)c(OC)c2)cc(OC)c1	0.49	1.07
COc1ccc(NC(=O)CC23CC4CC(CC(C4)C2)C3)cn1	18.3*	0.94*
CC(=O)Oc1ccc(C(C)=O)c2c1OCCO2	2.12	-1.66
O=C1N[C@@H](Cc2cn(S(=O)(=O)c3ccc([N+](=O)[O-])cc3)c3ccccc23)C(=O)N[C@H]1Cc1ccccc1	0.15	1
CCOc1cc2[nH]c(=O)n(Cc3ccc(C(=O)NCCOC)cc3)c(=O)c2cc1OCC	0.12	-0.27
CCCS(=O)(=O)c1nc(S(=O)(=O)c2ccc(C)cc2)c(N2CCN(C)CC2)s1	1.4	0.11
NS(=O)(=O)c1ccc(CCNCc2ccccc2OCc2ccc(Cl)cc2)cc1	4.32	0.09
C=CCNC(=O)c1ccc(-c2nc(-c3ccc(Cl)cc3Cl)cs2)cc1	0.1	-0.65
Cc1ccc(S(=O)(=O)NCC(=O)OCN2C(=O)c3ccccc3C2=O)cc1	0.08	1.06
COc1ccc(/C=C(\NC(=O)c2cccs2)C(=O)NCc2ccco2)cc1OC	0.04	0.02
CCn1c(=O)cc(OCC(=O)Nc2ccc(C)cn2)c2ccccc21	0.04	-1.03
CCC(=O)N(CCc1ccccc1)Cc1cc2cc(OC)ccc2[nH]c1=O	0.04	-0.6
CCN(CC)S(=O)(=O)c1ccc(Oc2cccc(C(C)=O)c2)nc1	0.66	-1.11
CC(=O)Oc1cccc(N2C(=O)C3C4C=CC(C4=C(C)C)C3C2=O)c1 (stereo not given)	1.28	0.25
COc1ccccc1C(=O)NC(CCSC)C(=O)NCC(c1ccco1)N(C)C (stereo not given)	1.37	2.5

Filtered by structure, the entries above containing a thiophene ring, fused or not.
SMILES	KCNQ2 pot	KCNQ2 pot baseline
Cc1ccnc(NC(=O)c2cc3c(=O)oc4ccc(C)cc4c3s2)c1	0.77	-3.23
COCCCNC(=O)c1cc2c(-c3cccc(OC)c3)nn(C)c2s1	0.07	-2.92
O=C(NN1CCOCC1)c1cc(-c2ccc(Br)s2)nc2ccccc12	0.05	1.9
COC(=O)c1sccc1-n1cccc1C(=O)NCc1ccccc1	0.04	1.54
O=c1c2c3c(sc2nc2sc(CN4CCOCC4)cn12)CCCC3	0.88	-0.46
COc1ccc(/C=C(\NC(=O)c2cccs2)C(=O)NCc2ccco2)cc1OC	0.04	0.02

Continuation:
SMILES	KCNQ2 pot	KCNQ2 pot baseline
O=S(=O)(Nc1ccccn1)c1cccc(S(=O)(=O)c2ccc(Cl)cc2)c1	0.2	-0.79
CCOc1cccc(-c2c(C(=O)N/N=C/c3ccncc3)nnn2-c2nonc2N)c1	0.85	0.38
COc1ccc(NC(=O)c2ccccc2SC)c(OC)c1	1.56	-2.09
COc1ccc(C2CC(c3ccc(Cl)cc3Cl)Nc3nc(N)nn32)cc1OC (stereo not given)	1.29	1.14
O=c1cnc2ccccc2n1CC1CCCCC1	1.5	-1.58
Cc1cc(=O)n2[nH]c(-c3sccc3-n3c(C)ccc3C)cc2n1	1.52	-0.88
CCOC(=O)c1sc(C)c2c1NC(C)(c1ccccc1)NC2=O (stereo not given)	0.48	0.01
CC(=O)c1c(C)[nH]c(C(=O)OCC(=O)Nc2ccc([N+](=O)[O-])cc2Cl)c1C	0.68	0.86
Cc1ccc2c(n1)sc1c(N)ncnc12	0.02	-0.08
Cc1cc(C)n(CC(C)NCc2cn[nH]c2-c2cccc3ccccc23)n1 (stereo not given)	0.68	-0.92
Cc1ccc(C2CC2C(=O)NNC(=S)Nc2cccc(Cl)c2)cc1 (stereo not given)	18*	0.2*
O=C(Nc1nc2ccc([N+](=O)[O-])cc2s1)c1c(F)cccc1F	0.02	0.54
CSc1nc(C)cc(Oc2ccc(OCC(N)=O)nn2)n1	0.14	-0.36
O=C(c1cc2ccccc2c(=O)o1)N1CCc2ccccc2C1	0.67	0.45
Cc1ccc(S(=O)(=O)NCCN2CCOCC2)cc1	0.17	0
O=C(NNC(=O)c1cccs1)c1ccc(Cl)nc1	1.2	-0.73
Cc1cc2ccccn2c1C(=O)Nc1ccc(Cl)cc1	1.2	1.53
Cc1cc(C(=O)COc2ccccc2C#N)c(C)n1C1CC1	0.9	0.16
CCOc1ccccc1/C=N/NC(=O)c1cccc(S(=O)(=O)N(CC)CC)c1	1.08	0.3
CN(C)/C=N/C(=S)Nc1ccc(Br)cc1F	1.16	0
CCOc1ccccc1NC(=O)C1CCN(S(=O)(=O)c2ccc(OC)c(OC)c2)CC1	0.8	0.02
Cn1ccnc1SCC(=O)NC1CCCC1	0.14	0.95
Cc1ccc(SCCC(=O)OC(C)C(=O)Nc2ccccc2)cc1 (stereo not given)	0.11	2.82
O=C(O)c1ccc2c(c1)C(=O)N(c1ccc(Cl)cn1)C2=O	0.89	-0.87
O=C(NCc1cccnc1)c1nc(-c2ccccc2)n(-c2ccccc2)n1	0.01	-1.51
O=C1CC2(CCCCC2)Oc2ccccc21	1.56	0
CCOc1ccccc1C(=O)OCC(=O)Nc1nnc(-c2ccccc2)o1	5.47*	1.7*
COc1ccc(CCNC(=O)C(C)OC(=O)c2nsc(Cl)c2Cl)cc1OC (stereo not given)	0.46	0.42
CCN(CC)CCN(Cc1cc2ccc(C)cc2[nH]c1=O)C(=S)Nc1ccccc1C(=O)OC	0.85	0.3
CCCn1c(-c2cccnc2Cl)nc2cc(Cl)c(Cl)cc21	1.79	-0.01
CC(CN1CCCCC1)OC(=O)CCc1ccccc1 (stereo not given)	0.36	0.79
CC1(C)CC(=O)C=C(Nc2ccc(F)cc2)C1	0.26	-1.06
CC(=O)NC1(c2ccccc2)CCN(CC(=O)N2CCC(C)CC2)CC1	0.66	1
O=C(CN1C(=O)/C(=C\c2ccccc2F)SC1=S)Nc1nc2ccccc2s1	1.29	0.61
O=C(CSc1nc2c(c(=O)n1-c1ccc(Cl)cc1)SCC2)N1CCOCC1	1.01	-0.59
COC(=O)/C(=C1/Oc2ccc(C(C)(C)C)cc2S1)C(F)(F)F	0.75	0.03
O=C(c1ccc(Cl)c(S(=O)(=O)N2CCCC2)c1)N1CCCCC1	0.01	0.02
Cc1ccc(NC(=O)CCNC(=O)c2ccc(Cl)cc2)cc1F	1.11	-0.43
Cc1ccc(C(=O)Nc2cccc(C(F)(F)F)c2)cc1NC(=O)c1nccnc1N	0.72	-0.01
CC12CCC(C(=O)Nc3ccccc3)(C(Br)C1=O)C2(C)C (stereo not given)	0.44	0.78
COc1ccc(OC)c(/C=N/NC(=O)c2c(C)nc3ccc(C)cn23)c1	0.82	-0.34
CC(=O)c1c(C)[nH]c(C(=O)COC(=O)c2ccc3c(=O)n4c(nc3c2)CCC4)c1C	0.55	-2.05
COc1ccc(CCNS(=O)(=O)c2c(N)n(C)c(=O)n(C)c2=O)cc1OC	1.54	-0.61
CC(=O)c1ccc(NC(=O)c2ccc(C)c(Br)c2)cc1	1.48	0.08
CN(CC(=O)Nc1c(F)cccc1F)Cc1cccs1	0.74	-0.59
Cc1cc(NC(=O)CSc2nnc(C)n2-c2ccccc2C)no1	0.79	0
COc1ccccc1NC(=O)CC1C(=O)Nc2ccccc2N1C(=O)c1ccccc1 (stereo not given)	1.19	-0.81
O=C1c2ccccc2S(=O)(=O)N1Cc1cccc(S(=O)(=O)N2CCOCC2)c1	2.5	-0.18
O=C(CNc1cc(S(=O)(=O)N2CCOCC2)ccc1NCC1CCCO1)Nc1ccc(F)c(F)c1 (stereo not given)	0.02	-1.2
COCCCNc1nc2nonc2nc1NCCSC	1.29	0.06
Cc1ccc(NC(=O)NC2CCCCC2)c(C)c1	0.01	1.35
